Rce1 inh: inhibitors of yeast Ras-converting enzyme; yeast membranes, quenched prenylated peptide cleavage fluorescence; Q03530; 290,000 compounds, 0.27% hits; calls only;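 active = fall in fluorescence gain of 50% or more versus controls, with final raw signal at or below 3038400; inconclusive = same 50% fall but final raw signal above 3038400; inactive = fall in fluorescence gain under 50%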;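 note: plate controls were neutral control wells for no effect and wells lacking membranes for full effect; tested at 10 µM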
PABP polyA inh: PABP-poly(A) binding inhibition. 290,000 compounds, 1% hits. P11940. AID 2014. inhibition, % at 35 µM. PABP-poly(A) RNA binding, fluorescence polarization;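 active = 50% or more with normal probe brightness, or confirmed in later tests; inconclusive = above 50% with abnormal brightness, or retests that disagree; inactive = below 50% or failed in later tests; about a fifth of its hits are not listed in these tables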;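 note: calls also rest on retests at 20 µM and on dose response follow-up; controls were probe without protein and protein plus probe with vehicle; some compounds called inactive have numbers as strong as hits; many hits fall short of the cut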
Target sequence (P11940 whole entry, looked up): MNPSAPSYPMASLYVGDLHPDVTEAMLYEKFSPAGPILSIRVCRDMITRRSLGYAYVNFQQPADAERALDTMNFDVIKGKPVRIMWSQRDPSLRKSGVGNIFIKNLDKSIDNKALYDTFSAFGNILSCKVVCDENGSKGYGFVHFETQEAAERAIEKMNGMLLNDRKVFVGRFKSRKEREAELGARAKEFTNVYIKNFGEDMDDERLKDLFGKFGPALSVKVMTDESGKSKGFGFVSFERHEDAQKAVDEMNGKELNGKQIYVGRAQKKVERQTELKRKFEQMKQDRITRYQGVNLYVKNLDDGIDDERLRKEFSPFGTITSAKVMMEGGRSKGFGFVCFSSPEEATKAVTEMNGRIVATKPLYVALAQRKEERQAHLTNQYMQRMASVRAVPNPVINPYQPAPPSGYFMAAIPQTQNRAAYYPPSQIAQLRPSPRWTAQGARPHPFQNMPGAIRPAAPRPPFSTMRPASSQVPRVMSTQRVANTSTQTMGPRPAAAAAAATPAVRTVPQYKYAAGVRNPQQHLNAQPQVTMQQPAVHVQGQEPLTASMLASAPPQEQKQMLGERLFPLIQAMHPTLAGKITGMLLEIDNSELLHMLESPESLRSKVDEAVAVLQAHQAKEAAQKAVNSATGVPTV
HIV Env fusion: blocks HIV Env-driven cell-cell fusion; HeLa-JRFL Env/CEM21 cell fusion, luciferase; inhibition, % at 12.3 µM; 360,000 compounds, 1.1% hits; AID 651610;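 active = mean replicate inhibition score of at least 50 and every replicate individually at or above 50; inconclusive = only one of the two criteria met; inactive = mean below 50 and not all replicates reaching 50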;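 note: 0% = plate neutral controls and 100% = maraviroc near 300 nM; one replicate is shown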
CSC inhib: blocks cancer stem cells | cancer stem cell-like cells viability, luminescence | inhibition, % at 7.5 µM | 300,000 compounds, 1.1% hits;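 active = mean at 75% or more and at least half the replicates too; inconclusive = mean and replicates disagree; tested in HMLE shEcad cells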;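 note: 0% = median of negative and 100% = median of positive control wells; the first replicate is given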
MT1-MMP act inh: blocks activation of human MT1-MMP | P50281 | HT1080 RFP-PRO-GFP cells, GFP/RFP ratio fluorescence, overnight; percent of plate control window, DMSO zero | GFP/RFP ratio change, % at 20 µM | 360,000 compounds, 0.061% hits;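 active = GFP/RFP ratio change of at least 30% with cell ATP level not reduced by more than half and red fluorescence within 50% of control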; note: strong numbers were not always called active
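Assay system: HT1080 cells carrying an RFP-PRO-GFP reporter | Dosing: Single dose of 20 µM compound, 1% DMSO final | Incubation: Cells overnight before dosing, compound overnight, 37 °C, 5% CO2 | Evaluation: GFP/RFP fluorescence ratio | Control set: DMSO and RFP-L50D-GFP cell wells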
eIF4H inh: inhibitors of RNA binding by human eIF4H; Q15056; 290,000 compounds, 0.94% hits; inhibition, % at 35 µM; eIF4H fluorescence polarization binding assay;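 active = 50% or more with normal probe brightness, or confirmed in later tests; inconclusive = above 50% with abnormal brightness, or retests that disagree; inactive = below 50% or failed in later tests; about a fifth of its hits are not listed in these tables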;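 note: calls also rest on retests at 20 µM and on dose response follow-up; 0% = protein and probe with vehicle and 100% = probe without protein; strong numbers were not always called active; many hits fall short of the cut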
UUG fidelity: yeast start codon fidelity modulation; 350,000 compounds, 0.13% hits; S. cerevisiae UUG-firefly luciferase reporter, luminescence/redox ratio; AID 602363; activity score, % at 18.7 µM;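 active = replicate mean at a twofold rise or more, about +100% in these data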;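 note: firefly luciferase made from a UUG start codon reports start codon fidelity; reporter light over untreated wells divided by growth signal over untreated wells; some hits fall short of that in this replicate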
eIF4H inh retest: recorded beside eIF4H inh, whose call it bears; inhibition, %; compound at 20 µM; confirmation average;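 mean of two retest wells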
PABP polyA inh retest: second read-out of PABP polyA inh, no call of its own (marks repeat the call); inhibition, %; compound at 20 µM; confirmation repeats;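 mean of two retest wells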
MT1-MMP act inh RFP: further read-out of MT1-MMP act inh, marked with its call; RFP signal change, %; measured here: RFP expression control read;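 0 = vehicle wells; hits needed this value within 50% of zero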
An asterisk follows results filed as active; i = inactive; ? = inconclusive; / = not tested or not shown; & = joins results of further samples; [ ] = another dose, or the depositor's remark.

SMILES | Rce1 inh | PABP polyA inh | HIV Env fusion | CSC inhib | MT1-MMP act inh | MT1-MMP act inh RFP | eIF4H inh | UUG fidelity | others
CCCCN(C(=O)c1cccc(S(=O)(=O)N2CCN(Cc3ccccc3)CC2)c1)c1ccccc1 | i | 1.2 | ? | 6.4 | 1.4 | -7.4 | -4.3 | 3.2
Cc1ccc(C)n1-c1ccc(C(=O)N2CCOCC2)cc1 | i | -12.5 | / | 0.8 | -10.1 | 6.8 | 8.3 | 6.8
COc1ccnc2c1c(=O)n(Cc1ccc(F)cc1)c(=O)n2C | i | / | -2.5 | -6.0 | 2.0 | 2.7 | / | -11.3
O=C(Nc1cc(C(F)(F)F)ccc1Cl)c1cccnc1 | / | 1.2 | -1.0 | -6.0 | 2.9 | 1.2 | -14.4 | -20.0
Cc1ccc(NC(=O)COc2ccc(CCO)cc2-n2nc3ccccc3n2)cc1C | i | 7.9 | / | 60.0 | -2.1 | 0.1 | -17.6 | -21.4
CN(C)c1ccc(CNn2cnnc2SCc2ccccc2F)cc1 | i | 11.8 | / | -12.1 | -8.7 | -1.1 | 9.1 | -4.8
Cc1c(C(=O)Nc2ccc(OC(F)(F)F)cc2)sc2nc3n(c(=O)c12)CCC3 | i | -4.8 | / | 8.5 | -0.8 | -16.3 | -7.2 | 3.3
O=C(CCN1CCCCO1)N1CCCC(Nc2ccc(F)c(F)c2)C1 (stereo unspecified) | i | -8.6 | 15.6 | -3.2 | 0.9 | 1.2 | -8.4 | -7.8
Cc1ccc(CNS(=O)(=O)NCc2cccs2)cc1 | i | 3.8 | -2.0 | 4.8 | -1.7 | -1.0 | 36.0 | /
O=C(Cc1ccc(-c2ccccc2)cc1)NNC(=S)NCc1ccco1 | i | 1.0 | 5.2 | 0.7 | -0.5 | -9.8 | 6.7 | /
c1ccc(CC2CCN(C3=Nc4cccc5cccc3c45)CC2)cc1 | i | 82.8 | / | ? | -25.8 | 2.8 | 91.9* | -13.3 | eIF4H inh retest=55.9*;PABP polyA inh retest=-0.6
O=C(NCCCNC(=O)c1ccc(-c2cc(Cl)ccc2Cl)o1)c1cnccn1 | i | -3.0 | 3.8 | -4.9 | -0.1 | 3.1 | -2.4 | -9.3
COc1ccc2c(c1)cc(C(=O)N/N=C/c1c(O)c(C(=O)O)cc3ccccc13)n2C | i | 18.3 | -12.2 | -18.0 | -22.5 | 1.3 | 49.8 | -17.4
CN1C(C)(C)CC(=NO)CC1(C)C | / | / | -19.4 | / | -3.9 | 2.8 | / | -12.3
NC(=S)Nc1ccc(Cl)cc1Cl | i | -1.4 | -16.4 | 21.8 | 4.3 | 5.3 | 1.5 | /
O=C(Nc1nc2ccc(F)cc2s1)Oc1ccccc1 | i | 17.7 | 9.7 | 11.3 | -0.7 | 4.6 | -0.9 | -21.1
CC(C)(C)NC(=O)NC(=O)COC(=O)CNC(=O)c1cc(Cl)cc([N+](=O)[O-])c1 | i | 11.7 | -7.0 | -10.5 | 0.6 | -0.4 | -7.0 | 15.2
O=C(N/N=C/c1cc2c(cc1[N+](=O)[O-])OCO2)c1cccnc1 | i | 29.5* | 3.3 | -10.6 | 0.0 | 3.4 | 84.9* | -11.1 | eIF4H inh retest=85.9*;PABP polyA inh retest=98.7*
CC1CCCCN1C(=O)COC(=O)c1ccc(=O)n(Cc2ccccc2)n1 (stereo unspecified) | i | / | -18.9 | / | 0.1 | 2.9 | / | /
CCOC(=O)N1CCC(NC(=O)CCN2C(=O)C3C4C=CC(C4)C3C2=O)CC1 (stereo unspecified) | / | -8.1 | / | -11.7 | 2.1 | -1.0 | -1.8 | -6.2
Cc1ccc(NC(=O)Nn2cnnc2)c(C)c1 | i | -10.9 | -106.5 | -4.7 | 4.0 | 3.9 | -5.2 | 0.8
CCOC(=O)c1cc(C)n(-c2ccccc2)c1C | i | 9.8 | -81.0 | 19.3 | -0.7 | 4.0 | 3.0 | /
Cc1ccn2c(C(=O)NN=C3CCN(C)CC3)c(C)nc2c1 | i | -6.4 | -49.7 | -12.9 | -1.1 | 7.4 | 0.9 | /
Cc1ccc(C(=O)N/N=C\c2cc(Br)c(Br)o2)cn1 | i | ? | -3.9 | 11.9 | -16.4 | -4.2 | ? | -24.4
CCOC(=O)c1ccc(Nc2ncnc3nc[nH]c23)cc1 | i | 3.6 | -39.6 | 8.5 | -1.7 | -6.5 | -7.5 | -21.8
Remaining list, next part:
SMILES | Rce1 inh | PABP polyA inh | HIV Env fusion | CSC inhib | MT1-MMP act inh | MT1-MMP act inh RFP | eIF4H inh | UUG fidelity | others
Cc1ccc(C(C)NC(=O)C2CCCC2)c(C)c1 (stereo unspecified) | i | 5.0 | 1.5 | -5.6 | -0.1 | -1.6 | -7.6 | 1.7
CC(C)c1ccc(CNC(=O)C(=O)Nc2nccs2)cc1 | i | 14.8 | -14.4 | 7.5 | 6.5 | 7.5 | 2.7 | /
NC(=O)c1nnn(-c2ccc([N+](=O)[O-])cc2)c1-c1ccccc1 | i | -3.7 | -14.0 | -0.1 | -6.6 | -5.1 | 2.0 | /
Fc1ccc(NC(=S)Nc2ccc3nccnc3c2)cc1 | i | 18.2 | -1.2 | 2.0 | -2.5 | -6.7 | 9.2 | /
COc1cccc(/C=C/C(=O)NNC(=O)CCN2CCN(Cc3ccccc3)CC2)c1 | i | -1.5 | 9.3 | 36.2 | 2.7 | 1.7 | -0.8 | 0.1
COc1ccc(N2CCN(CCCNC(=O)CC3Oc4ccc(C)cc4NC3=O)CC2)cc1 (stereo unspecified) | i | -18.6 | 28.8 | -16.6 | 4.6 | 1.8 | 0.7 | -13.4
CCOC(=O)C1CCCN(C2CCN(Cc3nc(-c4ccccc4)no3)CC2)C1 (stereo unspecified) | i | 8.9 | 9.2 | 33.0 | 0.9 | 1.0 | -1.9 | -2.3
COc1cc(C=O)ccc1Oc1ccc(S(=O)(=O)N2CCOCC2)cc1[N+](=O)[O-] | / | / | -10.2 | 2.8 | -0.9 | -3.5 | / | -27.0
COc1ccc(S(=O)(=O)N2CCCC2)cc1C(=O)O | i | 7.3 | 10.3 | -10.3 | 1.7 | -1.9 | 3.6 | -13.7
O=[N+]([O-])c1ccc2nc(NCCCO)nc(-c3ccccc3)c2c1 | i | ? | / | -7.1 | -2.7 | 0.0 | -0.8 | /
O=C(c1[nH]c(C(F)(F)F)nc1-c1ccccc1)N1CCc2c([nH]c3ccccc23)C1 | / | / | -12.5 | / | -7.1 | -13.3 | / | 3.8
O=C(CSc1nc2c(c(=O)n1-c1ccc(Br)cc1)SCC2)Nc1nccs1 | i | 0.7 | / | -3.1 | -9.2 | 2.7 | 3.9 | -19.8
CCOC(=O)CC1C(=O)NCCN1C(=O)c1ccc(Cl)c(Cl)c1 (stereo unspecified) | i | -1.5 | 8.6 | / | -0.7 | 0.3 | -12.2 | -15.1
COc1ccc(NC(=O)N(C)C[C@H]2Oc3c(NC(=O)C4CC4)cccc3C(=O)N([C@H](C)CO)C[C@@H]2C)cc1 | / | / | -19.8[16.7 µM] | -10.2 | 1.1 | 5.1 | / | -3.8&4.1
CC1(C)CC(=O)C2=C(C1)Oc1nc3ccccc3cc1C2C(C#N)C#N (stereo unspecified) | i | -9.7 | / | 49.1 | -12.2 | -7.5 | 9.6 | -7.7
Cc1cc(C)n2nc(CCc3ccccc3)nc2n1 | i | 6.8 | -19.1 | -7.3 | 9.1 | 0.9 | 0.8 | -29.0
O=C(NC1CCCCC1)C(c1ccccc1)N(C(=O)c1csnn1)C1CC1 (stereo unspecified) | / | -8.0 | -5.0 | -13.2 | -0.8 | 4.4 | 16.4 | -10.4
CN(Cc1cnccn1)C(=O)CC1C(=O)NCCN1Cc1cccc(F)c1 (stereo unspecified) | i | -5.6 | 1.6 | -2.1 | -1.8 | -0.6 | 17.8 | -14.4
Cc1ccc(S(=O)(=O)Nc2ccc3c(c2)C(=O)N([C@H](C)CO)C[C@H](C)[C@@H](CN(C)C(=O)NC2CCCCC2)OCCCC[C@@H](C)O3)cc1 | / | / | -13.6[16.7 µM] | / | -1.5 | -4.2 | / | 14.6&13.0
Cc1onc(-c2ccccc2)c1C(=O)N1CCN(c2ncccn2)CC1 | i | 1.4 | -17.0 | 27.6 | 0.8 | 4.8 | -11.3 | -11.0
Cc1ccccc1S(=O)(=O)NNC(=O)C(=O)NNc1ccccn1 | i | -2.5 | / | 16.0 | 7.4 | 6.5 | 6.9 | -18.7
CCOC(=O)CNC(=O)CSc1nnc(-c2c[nH]c3ccccc23)n1CC | i | -11.1 | 9.7 | -12.6 | -0.1 | 2.8 | -5.7 | -20.9
O=C(COC(=O)CC12CC3CC(CC(C3)C1)C2)Nc1ncc(Cl)cc1Cl | i | 15.4 | ? | / | -6.5 | 2.3 | 16.4 | /
CCCCNC(=O)c1cc(C)no1 | i | 2.0 | 9.0 | -3.5 | -0.5 | 0.9 | 2.1 | -18.1
O=C(Cn1[nH]c(=O)c2ccccc2c1=O)OCC(=O)c1ccc(Br)cc1 | i | / | / | -1.4 | -2.0 | 4.7 | / | -10.1
More structures follow.
SMILES | Rce1 inh | PABP polyA inh | HIV Env fusion | CSC inhib | MT1-MMP act inh | MT1-MMP act inh RFP | eIF4H inh | UUG fidelity | others
CCOc1nc(-c2ccccc2Cl)ccc1C#N | i | -7.7 | -185.5 | / | -1.3 | -1.3 | -3.1 | -31.3
Cc1ccccc1CN1CCN(CC2CC3C=CC2C3)CC1 (stereo unspecified) | i | 26.6 | / | 59.8 | 1.9 | 2.2 | -3.1 | -5.2
O=C(c1ccco1)N1CCN(C(=O)c2cc(-c3ccccn3)nc3ccc(Cl)cc23)CC1 | i | 98.8 | / | 24.3 | -4.5 | 3.3 | 99.9* | / | eIF4H inh retest=68.0*;PABP polyA inh retest=36.9
COc1cc(C(=O)Nc2nc3ccc(S(=O)(=O)N4CCOCC4)cc3s2)cc(OC)c1OC | ? | -0.5 | -51.5 | -8.4 | 4.8 | 2.1 | -0.3 | 14.9
Cc1ccc(-n2nnc3c(=O)oc4ccccc4c32)cc1 | i | -8.9 | / | -6.9 | -0.8 | 1.4 | 6.6 | -12.9
O=C(COc1ncnc2ccccc12)Nc1ccc(Cl)c(S(=O)(=O)N2CCOCC2)c1 | i | 5.2 | 5.8 | -7.8 | 7.6 | 0.5 | -12.5 | -1.9
COc1cccc(-c2nnc(NC(=O)Cc3cccs3)s2)c1 | i | 13.7 | -57.7 | -1.8 | 1.0 | 3.3 | 13.6 | 0.6
CC(C)CCn1c(SCC(=O)OCn2nnc3ccccc3c2=O)nc2ccccc2c1=O | i | -8.0 | / | 11.8 | 5.3 | 4.6 | -0.9 | -14.2
CCCCCC(=O)N/N=C(\C)c1ccc(N2CCCCC2)cc1 | i | 9.9 | / | 4.8 | 1.3 | 3.6 | -6.6 | /
CC(C)OP(=O)(OC(C)C)C(Nc1ccc([N+](=O)[O-])cc1)c1cccc([N+](=O)[O-])c1 (stereo unspecified) | i | -17.4 | 3.9 | 2.6 | -5.3 | -5.7 | 32.2 | /
CCOc1ccc(N2C(=O)Nc3ccc(Br)cc3C2(O)C(=O)NC(C)C)cc1 (stereo unspecified) | i | -5.7 | 7.4 | -10.8 | 1.2 | 5.2 | 2.4 | -3.7
Cc1nnc(-c2ccccc2)nc1N(C)C | i | 21.8 | -28.4 | 0.0 | 0.0 | 3.3 | -2.8 | /

Compound activity as filed in PubChem BioAssay.

Compounds were not picked by outcome. About 2.9% of those tested had a hit in this group.
